Source: PubChem BioAssay (National Center for Advancing Translational Sciences (NCATS))
VACV Venus inh: inhibitors of vaccinia virus (Venus reporter) | hit rate 0.46% among 330,000 | Potency, µM (highest dose often 36.5 µM), inactives show at the highest dose activity change, negative = inhibition, hits mostly inhibitors | Vaccinia virus Venus reporter expression, fluorescence; active means well fitted inhibition curve with a large enough effect; inconclusive means small, poorly fitted or top-dose-only effect; inactive means no such curve, though single readings can be large or run the other way; tested in A549 cells; further: nearly all actives have a fitted effect of over 30% in size; inactives centre near -10
Vaccinia mCherry: inhibitors of vaccinia virus infection (mCherry reporter signal). Vaccinia virus mCherry reporter infection, fluorescence; about a quarter of the inactives have no number. Potency, µM (doses to about 36.5 µM), for inactives: top-dose activity change, negative = inhibition, hits mostly inhibitors. hit rate 0.63% among 310,000. AID 720579; active = well fitted inhibition curve with a large enough effect; inconclusive = small, poorly fitted or top-dose-only effect; inactive = no such curve, though single readings can be large or run the other way; tested in A549 cells; further: nearly all actives have a fitted effect of over 35% in size; inactives centre near -10
Active calls of the source: *; i = inactive; ? = inconclusive; / = not tested or not shown; & = joins results of further samples; [ ] = another dose, or the depositor's remark. On the % scale 0 is the no-effect control and ±100 the full control effect; potency means the concentration at half of the fitted maximal effect.

The line under a structure holds: VACV Venus inh | Vaccinia mCherry
COC(=O)CS(=O)(=O)c1ccsc1C(=O)Nc1ccc(F)c(F)c1
 : -14% | -16%
O=C1C2=C(SCCS2)C(=O)N1CCCO
 : -10% | -5%
Cc1cc(OCC(=O)N2CCC(C(=O)O)CC2)c2c(C)c(C)c(=O)oc2c1
 : 3% | 4%
COc1ccc([C@@H]2[C@@H](C)N(c3ccccc3)c3ccccc3C(=O)N2Cc2ccccc2)cc1
 : ? | -13%
CC(=O)N1CCN(Cc2cc(=O)oc3ccc4ccccc4c23)CC1
 : 1% | 24%
O=C(O)C1Nc2ccc(C(F)(F)F)cc2C2OCCC12 (stereo not given)
 : -9% | -12%
COCOCCn1cc(CN2CCS(=O)(=O)N(Cc3ccc(-c4ccccc4)cc3)C(CC(C)C)C2=O)nn1 (stereo not given)
 : ? | -3%
CNC(=O)CSc1nnc(-c2ccco2)n1-c1ccccc1
 : -3% | i
C[C@@H]1C(=O)O[C@H]2[C@H](O)[C@@]34[C@H]5C[C@@H](C(C)(C)C)[C@]36[C@@H](OC(=O)[C@@H]6O)O[C@@]4(C(=O)O5)[C@@]12O
 : 5% | i
CC(Oc1ccc(Br)cc1)C(=O)NCC(c1ccco1)N1CCCCC1 (stereo not given)
 : -16% | -2%
CC(C)CC(C(=O)NC(=O)NCc1ccccc1)N1C(=O)c2ccccc2C1=O (stereo not given)
 : -15% | /
Cc1ccc(S(=O)(=O)c2c(Nc3ccccc3)sc(C(=O)c3ccc4c(c3)OCO4)c2N)cc1
 : -15% | ?
O=C(O)c1cn(Cc2ccccc2)nc1-c1ccccc1
 : -6% | 0%
CCCCC(=O)Nc1c(O)c2ccccc2[nH]c1=O
 : -10% | -9%
O=C(CNS(=O)(=O)c1ccccc1)N1CCN(Cc2ccccc2)CC1
 : -10% | i
COC(=O)CC/C(O)=C1/C(=N)CC(C)(C)CC1=O
 : -18% | i
COc1cc(C(=O)Nc2ccc3c(c2)CCCN3C(=O)c2ccco2)c([N+](=O)[O-])cc1OC
 : -16% | -7%
CC(=O)Nc1cccc(-c2ccnc3c2CC(C(=O)Nc2ccc(C(C)C)cc2)O3)c1 (stereo not given)
 : -14% | -17%
O=C(O)c1cncc(SCc2ccccc2)n1
 : -14% | 0%
O=c1cc(O)c2ccccc2n1Cc1ccccc1
 : 3% | -1%
CCOc1ccc(S(=O)(=O)c2cc3cccc(OCC)c3oc2=O)cc1
 : 10% | -1%
O=C(CC(c1ccccc1)c1ccco1)N1CCOCC1 (stereo not given)
 : -5% | /
COc1cc(OC)cc(C(=O)NNC(=O)CCC2CCCC2)c1
 : -11% | -15%
Cc1oc2c(c(C)cc3oc(=O)c(CC(=O)NCCc4ccccc4F)c(C)c32)c1C
 : -8% | -18%
COc1ccc(NC(=O)C2CCN(S(=O)(=O)c3c(C)noc3C)CC2)cc1
 : -6% | -18%
O=C(CSc1nnc(NC(=O)Cc2ccc(F)cc2)s1)NCc1ccco1
 : -14% | -8%
COc1ccc(C(c2oc(CO)cc(=O)c2O)c2oc(CO)cc(=O)c2O)cc1
 : -9% | -5%
CCCN(CCC)CCCNC(=O)C1CCC(CNS(=O)(=O)c2ccc(NC(C)=O)cc2)CC1 (stereo not given)
 : -6% | -4%
CCOc1ccccc1NS(=O)(=O)c1ccc2c(c1)n(C)c(=O)c(=O)n2C
 : -17% | -26%
COc1ccc(NC(=O)/C(C#N)=C\c2ccc(-c3cccc(C(=O)O)c3C)o2)cc1
 : -17% | i

Entries of single compounds, looked up by structure. Order of values: VACV Venus inh	Vaccinia mCherry
CCOc1ccc(S(=O)(=O)c2cc3cccc(OCC)c3oc2=O)cc1 reads 10%	-1%
CC(=O)Nc1cccc(-c2ccnc3c2CC(C(=O)Nc2ccc(C(C)C)cc2)O3)c1 (stereo not given) reads -14%	-17%

The list goes on:
The line under a structure holds: VACV Venus inh | Vaccinia mCherry
CC(C(=O)Nc1ccccc1C#N)N1C(=O)NC2(CCCCCC2)C1=O (stereo not given)
 : -1% | -29%
C/C=C/c1ccc(OCC(=O)Nc2ccc(C(N)=O)cc2)c(OC)c1
 : -7% | i
CCn1c(=O)c(=O)n(CC)c2cc(N3CCCCC3)c(NC(=O)c3cccc(F)c3)cc21
 : -10% | -13%
Cc1cc(NC(=O)C2(C)CCN2C(C)C)c2ccccc2n1 (stereo not given)
 : -5% | 1%
CCOC(=O)c1[nH]c2ccccc2c1NC(=O)c1ccco1
 : -1% | -16%
COc1ccccc1OCc1nc2ccccc2n1C
 : -3% | -8%
CCc1cc2c(SCC(=O)C(C#N)=C3N(C)c4ccccc4N3C)ncnc2s1
 : -1% | -9%
Cc1cc(C(=O)NNC(=S)NC(C)c2ccccc2)c2ccccc2n1 (stereo not given)
 : -10% | /
Cc1c(C(=O)NNC(=S)Nc2cccc(Cl)c2)nnn1-c1ccccc1
 : -13% | ?
COc1ccc(CN2CN(c3ccc(Cl)cc3)C(=O)N(n3cnnc3)C2)cc1
 : -14% | -14%
CCN(C1CCCCC1)S(=O)(=O)c1cn(C)c(=O)n(C)c1=O
 : 3% | i
Cc1ccc(S(=O)(=O)/C(=C\N(C)C)c2cnc(Cl)s2)cc1
 : 7% | -6%
COCCNC(=O)CN(C(=O)c1ccc(N2CCCC2)nc1)c1ccc(F)c(Cl)c1
 : -13% | -5%
O=C(O)C1CCN(S(=O)(=O)c2ccc(Cl)s2)CC1
 : -13% | -11%
O=C(CCC(=O)OCC(=O)c1ccc(Br)cc1)NC1CCCCC1
 : 0% | -14%
O=C(CN1CCC(NC(=O)Nc2ccccc2)CC1)Nc1cccc([N+](=O)[O-])c1
 : -9% | -23%
Cc1cccc(CNc2cc(-c3cccc(NS(C)(=O)=O)c3)ncn2)c1
 : -9% | i
O=C(NNS(=O)(=O)c1ccccc1[N+](=O)[O-])c1cc2ccccc2cc1O
 : 0% | ?
Cc1cc(-c2[nH]nc3c2C(c2ccc(Cl)cc2)C(C#N)=C(N)O3)c(C)s1 (stereo not given)
 : -17% | i
O[C@H]1C[C@H](c2ccccc2)N(Cc2cccs2)C[C@@H]1n1cc(C2CC2)nn1
 : -25% | -28%
COc1cc(Cl)c(NS(=O)(=O)c2cc3[nH]c(=O)c(=O)[nH]c3cc2C)c(OC)c1
 : -10%&-5% | -9%&-7%
O=C(Nc1cc2c(cc1Cl)OCCCO2)c1ccccc1
 : -13% | -7%
CC1=C2C(=O)C3C(CC=C4CC(OC5OC(O)C(O)C(O)C5CO)CCC43C)C2CCC12OC1CC(C)CNC1C2C (stereo not given)
 : 5% | 0%
CCOC(=O)C1(CCC(=O)OCc2ccccc2)CCCCC1=O (stereo not given)
 : -1% | -10%
CCOc1ccc(NC(=O)CSc2nnc(-c3ccco3)n2C)cc1
 : -5% | /
COc1ccc(N2CCN(c3ncnc4nc[nH]c34)CC2)cc1
 : 3% | 27%
COc1ccc(C(=O)OCCN2CCCCC2)cc1
 : -1% | i
COc1ccc(-n2c(C)nc3cc(C(=O)NCc4ccco4)ccc32)cc1
 : ? | /
O=C1NC[C@H](CCCCN2C[C@H](Cc3ccc(O)cc3)N(Cc3ccccc3)C(=O)C2=O)N(CC2CCCCC2)C1=O
 : -6% | 7%
CCOCCCNCc1c(Cl)cccc1Cl
 : -8% | i

Single values from the results shown:
Result for `O=C(CN1CCC(NC(=O)Nc2ccccc2)CC1)Nc1cccc([N+](=O)[O-])c1` under VACV Venus inh: -9%
Result for `Cc1cc(-c2[nH]nc3c2C(c2ccc(Cl)cc2)C(C#N)=C(N)O3)c(C)s1` (stereo not given) under VACV Venus inh: -17%
Result for `O=C1NC[C@H](CCCCN2C[C@H](Cc3ccc(O)cc3)N(Cc3ccccc3)C(=O)C2=O)N(CC2CCCCC2)C1=O` under VACV Venus inh: -6%

(further entries)
The line under a structure holds: VACV Venus inh | Vaccinia mCherry
CC(C)Cc1cc(C(=O)N2CCN(C(c3ccccc3)c3ccccc3)CC2)no1
 : -4% | -7%
Cc1ccc(NC(=S)N/N=C2\CCCCC2C)cc1 (stereo not given)
 : -15% | ?
Cc1ccc(S(=O)(=O)n2ccc(=O)[nH]2)cc1
 : -5% | i
O=C1N[C@@H](c2ccccc2)COC(=O)[C@@H](Cc2ccc(F)cc2)CC/C=C/C[C@@H]1CC(=O)N(CCO)Cc1ccccc1
 : ? | ?
COC(=O)CCN(C(=O)c1cccc([N+](=O)[O-])c1)c1ccccn1
 : -6% | i
Cc1cc(NS(=O)(=O)c2ccc(NC(=O)COc3ccc(Cl)cc3Cl)cc2)no1
 : -12% | -18%
CC/C(=N\NC(=S)Nc1cccc(C)c1)c1ccccc1
 : -17% | ?
CCn1c(SCC(=O)NC2CC2)nnc1-c1ccccc1
 : -14% | -13%
CC(=O)N1N=C(c2ccc3ccccc3c2)OC12CCCC2
 : 1% | -4%
Nc1nnc(CCCCc2cccs2)o1
 : 10µM* | i
COc1ccc(C(=O)Nc2ccc(O)c3ccccc23)cc1OC
 : -9% | -14%
O=C(CCNc1n[nH]c(=O)[nH]c1=O)N/N=C/c1ccc(Cl)cc1
 : -9% | -8%
O=C(Cn1cnc(S(=O)(=O)N2CCCC2)c1)Nc1cccc(Br)c1
 : 0%[7.34 µM] | -1%[7.34 µM]
CC(C)Nc1nc(NC(C)C)nc(N(C)n2cnnc2)n1
 : -3% | -16%
O=C1c2ccccc2C(c2nnnn2-c2ccc3c(c2)OCCO3)N1CCCn1ccnc1 (stereo not given)
 : -7% | 1%
Cc1ccccc1C(=O)NC1CCS(=O)(=O)C1 (stereo not given)
 : -5% | i
CCN(CC)C(=O)c1nc[nH]c1C(=O)N1CCN(C(=O)OC(C)(C)C)CC1
 : -9% | -6%
CCCCN1C(=O)C(CC(=O)NC(c2ccccc2)c2ccccc2)CC(C(=O)N(C(C)C)C(C)C)=C1C (stereo not given)
 : -19% | -7%
N#Cc1c(NC(=O)CSc2nc3ccccc3s2)sc2c1CCCC2
 : -14% | i
COC(=O)C1=C(c2ccccc2)C[C@@H]2CC[C@H]1N2C(=O)N1CCC(C)CC1
 : -18% | i
O=C(Nc1ccccc1C(=O)O)c1cccc(NC(=O)c2ccc(Br)o2)c1
 : 0% | /
C[C@@H]1NC(=O)/C(=C\c2ccccc2Br)NC1=O
 : -9% | -11%
O=S(=O)(CCNC1CC1)NC1CCCCC1
 : -8% | i
Nc1nn(-c2ccccc2)c(N)c1N=Nc1ccc2c(c1)OCO2
 : ? | ?
CNC(=O)NC(=O)CSc1nnc(C(F)(F)F)n1C
 : 1% | -9%
CCN(CC)C(=O)c1sc2c(c1C)c(=O)n(CCc1ccccc1)c(=O)n2Cc1cccc(Cl)c1
 : -25% | -29%
CC(=O)c1ccc(OCc2cc(C(=O)N(C)Cc3nc4c(C)cccc4[nH]3)no2)cc1
 : -19% | i
COc1ccc2nc(NC(=O)CSc3nnc(-c4ccoc4C)n3C)sc2c1
 : -24% | -18%
CC(=O)N1CCc2cc(S(=O)(=O)CCC(=O)Nc3ccc(Cl)cc3F)ccc21
 : -27%[7.34 µM] | ?
Cc1cccc(N2CCN(C(=S)NCc3ccco3)CC2)c1C
 : ? | ?
Cc1nc(-n2nc(C)c(Cc3ccc(Cl)cc3)c2C)sc1C(=O)N1CCC(C)CC1
 : -24% | -24%
Cc1ccc(OCC(=O)Nc2nnc(SCc3cc(=O)c4ccccc4[nH]3)s2)cc1C
 : -8% | 9%
CCN(C(=O)C(C)OC(=O)c1nn(-c2ccccc2C(F)(F)F)cc1O)c1ccccc1 (stereo not given)
 : -23% | i
CCCOc1ccc(-c2nn(-c3ccccc3)cc2/C=C2\SC(N)=NC2=O)cc1C
 : -7% | i
C/C(=N/NS(=O)(=O)c1cccc([N+](=O)[O-])c1)c1ccncc1
 : -15% | -4%
Cc1ccc(C(=O)N2CCCC(c3ccccc3)=N2)cc1
 : -6% | -13%
COc1ccc(CCNC(=O)NC23CC4CC(CC(C4)C2)C3)cc1
 : -27% | ?
O=C(O)CCC(=O)NCCc1cccc(Cl)c1
 : -6% | -3%
O=C(CSc1n[nH]c(=O)n1CCc1ccccc1)NC1CCCC1
 : -12% | -1%
O=[n+]1cc(-c2ccc(F)cc2)n([O-])c2c1CCC2
 : -7% | -17%
O=C(Nc1ccc(NC(=O)c2cccs2)cn1)c1ccco1
 : -5% | -21%
COC(=O)c1cc2oc3ccccc3c2n1Cc1c(C)cc(C)cc1C
 : -13% | -14%
Cc1cc(C)n(/N=C/c2cc([N+](=O)[O-])ccc2O)c(=O)c1
 : -5% | i
CCOc1ccc(CONS(=O)(=O)c2ccc(NC(C)=O)cc2)cc1Cl
 : 0% | -8%
O=C(Nc1ccc(NS(=O)(=O)c2ccccc2)c(Cl)c1)c1ccccc1
 : -8% | i
C=CC(=O)NCCCc1cc(C(C)(C)C)c(O)c(C(C)(C)C)c1
 : ? | ?
Cc1ccnc(NS(=O)(=O)c2ccc(NC(=O)c3snnc3C)cc2)n1
 : -19% | i
CN(C)Cc1ccccc1-c1nc(NCc2ccccc2)c2ccccc2n1
 : -20% | -22%
Cc1c(C#N)c(N)nc2c3c(sc12)NC(=O)CC3c1ccccc1 (stereo not given)
 : -8% | -13%
N#C/C(=C\c1cc2c(cc1Br)OCO2)C(=O)NCC1CCCO1 (stereo not given)
 : -9%[7.34 µM] | -3%[7.34 µM]
COc1cc(CCCN2C(=S)NC[C@@H]2Cc2ccccc2)cc(OC)c1OC
 : -18% | -7%
Cc1[nH]c2ccc(OCc3ccccc3)cc2c1CCN1C(=O)OC(C)(C)C1(C)O (stereo not given)
 : -1% | ?
CCN(CC)S(=O)(=O)c1ccc(/C=C/C(=O)OCC(=O)Nc2ccc(C(N)=O)cc2)cc1
 : -6% | 6%
COc1ccc(-c2ccc(C(=O)NCCN3CCOCC3)c3occc23)c(C)c1
 : -23% | -7%
Cc1nc2ccccn2c(=O)c1NC(=O)c1cccs1
 : -5% | -9%
